PV pol inh: poliovirus RNA polymerase inhibition. hit rate 0.66% among 150,000. P03300. % elongation, % (compound at 16.7 µg/mL). poliovirus polymerase elongation, fluorescence polarization; stronger effect = lower value. AID 588519; in the data active means % elongation below about 90%; further: some results filed as inactive read as strong as hits
Target sequence (P03300 1749-2209 limits assumed): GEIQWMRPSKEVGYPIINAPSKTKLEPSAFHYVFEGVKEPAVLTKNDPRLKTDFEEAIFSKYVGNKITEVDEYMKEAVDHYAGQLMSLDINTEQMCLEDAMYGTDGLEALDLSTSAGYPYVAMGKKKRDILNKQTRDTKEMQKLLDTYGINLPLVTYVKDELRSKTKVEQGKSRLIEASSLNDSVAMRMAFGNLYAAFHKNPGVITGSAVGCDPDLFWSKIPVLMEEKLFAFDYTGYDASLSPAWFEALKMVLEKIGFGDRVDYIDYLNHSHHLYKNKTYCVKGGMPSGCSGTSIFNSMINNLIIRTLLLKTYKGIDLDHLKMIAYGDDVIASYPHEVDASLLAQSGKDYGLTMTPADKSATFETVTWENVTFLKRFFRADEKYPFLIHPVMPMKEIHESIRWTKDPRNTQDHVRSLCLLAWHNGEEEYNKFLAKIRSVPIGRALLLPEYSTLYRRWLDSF
PV pol inh intensity: further read-out of PV pol inh, marked with its call; % elongation; measured here: total intensity read-out; formula for this scale not given here;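 total fluorescence in place of polarization; lower means less elongation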
* marks the source's active call; other numbers are inactive results.

Order of results: PV pol inh, PV pol inh intensity
CCc1ccc(Nc2ncnc3sc4c(c23)CCCC4)cc1
 : 103, 109
Cc1ccc(-c2noc(-c3cc(-c4ccc(F)cc4)n[nH]3)n2)cc1
 : 96, 105
CCOc1ccccc1CNC(=O)Cn1nc(C)c2nn(-c3ccc(Cl)cc3)c(C)c2c1=O
 : 110, 113
Cc1ccc2[nH]c3c(=O)n(CC(=O)N(C)c4cc(Cl)ccc4C)ncc3c2c1
 : 105, 109
Cc1cccc(CS(=O)(=O)Cc2ccc(C(=O)NCc3ccccc3)o2)c1
 : 103, 103
COc1cccc(CNC(=O)Cn2c(=O)cc(C)c3c(C)nn(C)c32)c1OC
 : 104, 112
O=C(NCCc1ccccc1)c1ccc(Cn2c(SCc3ccccc3F)nc3cccnc32)cc1
 : 106, 109
CCn1cc(C(=O)NCc2ccc(C)cc2)c(=O)c2cc(S(=O)(=O)N3CCC(C)CC3)ccc21
 : 108, 105
Cc1cccc(C)c1OCC(=O)N(Cc1ccco1)Cc1ccco1
 : 112, 112
CCC(Cc1ccccc1)NC(=O)c1csc2c1CCCCC2 (centres undefined)
 : 104, 101
COC(=O)c1scc(-c2ccc(C)cc2)c1S(=O)(=O)Nc1ccc(OC(F)(F)F)cc1
 : 101, 107
Cc1ccc2c(CC(=O)Nc3ccc(S(=O)(=O)N4CCCCC4C)cc3)coc2c1C (centres undefined)
 : 108, 106
Cc1ccc(NC(=O)Nc2nnc(N3CCCC3)s2)c(C)c1
 : 107, 106
CC(C)CC(=O)n1nc(-c2cccnc2)nc1NCc1ccc(F)cc1
 : 100, 94
Cc1ccc(NC(=O)/C(C#N)=C/c2ccc(C(C)C)cc2)cc1C
 : 108, 111
Cc1nc2ccccn2c(=O)c1NC(=O)c1ccc(F)c(F)c1
 : 108, 115
CCOc1ccc(Nc2nc3cc(Cl)c(Cl)cc3nc2-n2nc(C)cc2C)cc1
 : 106, 114
Cc1ccc(-n2nc(C)c(C(=O)NCCCN3CCN(c4cccc(Cl)c4)CC3)c2-n2cccc2)cc1
 : 110, 115
COc1ccc(NC(=O)c2c(C)oc3ccc(O)c(CN4CCN(Cc5ccccc5)CC4)c23)cc1
 : 100, 102
Cc1nn(CC(=O)NCC(C)c2ccccc2)c(=O)c2cc3ccccc3n12 (centres undefined)
 : 109, 112
Cc1ccc(O)c(Nc2nc3ccccc3c3nncn23)c1
 : 105, 112
CCOC(=O)c1ccc2c(c1)N(Cc1cccc(C(F)(F)F)c1)C(=O)c1ccccc1S2(=O)=O
 : 116, 115
CCc1ccc(C2=C(C)C(N3CCC(C(=O)NCCc4ccco4)CC3)=NS2(=O)=O)cc1
 : 106, 104
COc1ccccc1NC(=O)C1=C(C)Nc2nc3ccccc3n2C1c1cccc(OC)c1OC (centres undefined)
 : 101, 103
COc1cccc(NC(=O)CSc2nc(-c3ccccc3Cl)nc3c2Cc2c(CO)cnc(C)c2O3)c1
 : 99, 97
Cn1c(/C(C#N)=C/c2ccccc2Br)nc2ccccc21
 : 100, 100
COCCn1c(C)cc(O)c(C(c2ccc(Cl)cc2)N2CCN(c3ccccc3)CC2)c1=O (centres undefined)
 : 112, 117
Cc1cccc(N2CCN(S(=O)(=O)c3ccc(-c4cc(C(F)(F)F)on4)s3)CC2)c1C
 : 103, 106
COc1ccc(NC(=O)c2oc3ccc(S(=O)(=O)N(C)C4CCCCC4)cc3c2C)cc1
 : 117, 112
COc1cc(OC)c(NC(=O)c2cc3c(s2)-c2ccc(Cl)cc2SC3)cc1Cl
 : 108, 115

Molecules listed so far containing two or more sulfur atoms (3):
Order of results: PV pol inh, PV pol inh intensity
COC(=O)c1scc(-c2ccc(C)cc2)c1S(=O)(=O)Nc1ccc(OC(F)(F)F)cc1
 : 101, 107
Cc1cccc(N2CCN(S(=O)(=O)c3ccc(-c4cc(C(F)(F)F)on4)s3)CC2)c1C
 : 103, 106
COc1cc(OC)c(NC(=O)c2cc3c(s2)-c2ccc(Cl)cc2SC3)cc1Cl
 : 108, 115

Additional records follow:
Order of results: PV pol inh, PV pol inh intensity
Cc1cccc(N2CCN(C(=O)c3cccc(-n4c(C)nc5cccnc54)c3)CC2C)c1 (centres undefined)
 : 111, 113
CCC1Oc2ccccc2N(CC(=O)NCc2cc(OC)ccc2OC)C1=O (centres undefined)
 : 115, 110
CCS(=O)(=O)N1CCc2cc(C(=O)N3CCN(c4ccc(OC)cc4)CC3)ccc21
 : 104, 113
CCOc1ccc(OCC)c(NS(=O)(=O)c2ccc3c(c2)CCN3C(=O)C2CCC2)c1
 : 113, 118
Cc1ccc(C)c(-c2ccc(=O)n(Cc3ccc(F)cc3Cl)n2)c1
 : 102, 104
COc1cccc(C(=O)N(Cc2ccco2)c2ccccn2)c1
 : 102, 94
COc1ccc(CNC(=O)c2ccc3nc(-c4ccc(F)cc4)c(-c4ccc(F)cc4)nc3c2)cc1
 : 111, 108
CC1=C(C(=O)Nc2ccccc2)C(c2ccc(F)cc2)n2nc(SCc3cc(C)ccc3C)nc2N1 (centres undefined)
 : 106, 105
COc1cc(NC(=O)CC2C(=O)N(c3cccc(C)c3)C(=O)N2Cc2ccc(F)cc2)cc(OC)c1 (centres undefined)
 : 110, 109
Cc1cc(C)n(-c2nnc3c(n2)[nH]c2ccccc23)n1
 : 101, 98
O=C(CCCCn1c(=O)c2ccccc2n(Cc2ccccc2F)c1=O)NCc1ccc2c(c1)OCO2
 : 111, 104
CN1CCN(CCCNC(=O)c2ccc3nc(Cc4ccccc4)oc3c2)CC1
 : 104, 112
Cc1ccccc1CCNC(=O)c1ccc2c(c1)nc1n2CCCCC1
 : 108, 106
CC(=O)c1cccc(NC(=O)Nc2cc3c(cc2N2CCCC2)n(C)c(=O)n3C)c1
 : 108, 110
Cc1cccc(-c2noc(-c3ccccc3OCC(=O)Nc3ccccc3[N+](=O)[O-])n2)c1
 : 108, 102
CCOc1cccc(C(=O)Nc2nnc(S(=O)(=O)N(C)c3ccc(C)cc3)s2)c1
 : 113, 118
COc1ccc(CNC(=O)CN(c2cc(C(F)(F)F)ccc2Cl)S(C)(=O)=O)cc1
 : 101, 101
CN1CCN(C(CNC(=O)c2cccc(F)c2)c2ccc3c(c2)OCO3)CC1 (centres undefined)
 : 115, 113
Cc1cccc(NC(=O)CN2C(=O)C(c3ccccc3)=NC23CCC(C)CC3)c1 (centres undefined)
 : 109, 110
CCOC(=O)c1c(C)[nH]c(C)c1S(=O)(=O)N(C)CC(=O)N1CCN(c2ccc(Cl)cc2)CC1
 : 111, 115
CCc1ccc(-c2nc(CN3CCCC(C(=O)NCc4ccccc4Cl)C3)c(C)o2)cc1 (centres undefined)
 : 108, 106
COc1cccc(CNC(=O)CCS(=O)(=O)c2cc3c4c(c2)CCN4C(=O)CC3)c1
 : 105, 111
Cc1c(Cl)cccc1NC(=O)NCc1c(-n2cccc2)sc2c1CCCC2
 : 105, 107
CCOC(=O)Cn1nc(C)c(NC(=O)COc2ccc(C)c(C)c2)c1C
 : 105, 110
CCOCCCNc1nc2cc(OC)c(OC)cc2c2nc(-c3ccccc3)nn12
 : 104, 103
Cc1ccc(C(=O)/C=C/c2cn(CC(O)CN3CCCCCC3)c3ccccc23)cc1 (centres undefined)
 : 108, 113
CSc1ncc(C(=O)NCc2cccc(F)c2)c(-c2ccccc2)n1
 : 100, 104
Cc1cccc(-n2ccnc2SCC(=O)Nc2ccccc2C(F)(F)F)c1
 : 106, 111
CCN(CC)S(=O)(=O)c1ccc2c(c1)N(CC(=O)Nc1ccccc1F)C(=O)C1CCCN21 (centres undefined)
 : 111, 117
O=c1c(-c2cc(-c3ccccc3)nc3c2COc2ccc(Cl)cc2-3)coc2ccc(F)cc12
 : 107, 109

Further compounds follow:
Order of results: PV pol inh, PV pol inh intensity
Cc1cccc(C)c1-n1ncc(C(=O)NCCCN2CCCCC2)c1C1CCN(C(=O)OC(C)(C)C)CC1
 : 114, 114
Cc1ccccc1Nc1c(-c2ccc(Cl)s2)nc2cccc(C)n12
 : 106, 106
O=C(Cn1c(SCCOc2ccc(Cl)cc2)nc2ccccc21)N1CCCCC1
 : 111, 102
CCC1CN(C(=O)Nc2ccc(Br)cc2F)c2ccccc2S1 (centres undefined)
 : 106, 109
Cc1ccc(-c2noc(-c3ccc(N4CCCCC4)c([N+](=O)[O-])c3)n2)cc1
 : 103, 104
Cc1cc(Br)ccc1NC(=O)C(NS(=O)(=O)c1cccs1)c1ccccc1 (centres undefined)
 : 90, 94
Cc1cc(C)cc(NC(=O)c2cc(S(=O)(=O)N3CCc4ccccc43)cn2C)c1
 : 103, 107
COCCCNC(=O)c1c(NC(=O)Cc2coc3cc(C)ccc23)sc2c1CCCC2
 : 119, 119
CCOc1ccccc1C(=O)N1CCc2cc(OC)c(OC)cc2C1COc1ccc(OC)cc1 (centres undefined)
 : 109, 106
CCOC(=O)c1c(NC(=O)c2cc(CC)on2)sc(C(C)=O)c1C
 : 106, 109
COc1ccc(NC(=O)CN(C)S(=O)(=O)c2cnc[nH]2)cc1Cl
 : 109, 114
CC(=O)Nc1ccc(NC(=O)c2oc3ccc4c(c3c2C)C(=O)CC(C)(C)O4)cc1
 : 117, 121
CCCCCCn1c(CNC(=O)c2ccccc2)nc2ccccc21
 : 112, 108
COc1ccc(-c2cc3c(=O)n(CC(=O)Nc4ccc(Br)c(C)c4)ccn3n2)cc1OC
 : 111, 109
Cc1nn(CC(=O)Nc2ccc(OC(F)(F)F)cc2)c(=O)c2c(C)n(-c3ccc(Cl)cc3)nc12
 : 112, 119
Cc1ccc2c(=O)cc(C(=O)Nc3ccc(S(=O)(=O)N4CCCCC4)cc3)oc2c1
 : 100, 107
CC1=C(C(=O)Nc2ccc(C)cc2Cl)C2(CCCCCC2)OC1=O
 : 107, 94
COc1cc(OC)cc(C(=O)Nc2ccc(-c3nc4cc(C(C)C)ccc4o3)cc2)c1
 : 106, 105
CC1CCN(S(=O)(=O)c2ccc3c(c2)N(CC(=O)NCCCOC(C)C)C(=O)CO3)CC1
 : 101, 98
O=C(O)CCCCn1c(SCC(=O)Nc2ccccc2C(F)(F)F)nc2ccsc2c1=O
 : 103, 109
CC(C)CCOc1ccc(Oc2nc(N(C)C)nc(N(C)C)n2)nn1
 : 101, 104
Cc1ccc2nc(NC(=O)c3nc(SCc4ccccc4C)ncc3Cl)sc2c1
 : 102, 105
COc1ccc(-c2[nH]ncc2C(=O)NCc2cccc(F)c2)cc1
 : 112, 112
COc1ccc(C(=O)NCC(c2ccc3c(c2)OCO3)N2CCN(C)CC2)cc1OC (centres undefined)
 : 124, 119
CCc1ccccc1NC(=O)CN1C(=O)c2cccnc2Sc2ccccc21
 : 96, 97
O=C(NC1(C(F)(F)F)C(=O)Nc2c1c(=O)[nH]c(=O)n2-c1ccc(F)cc1)c1ccccc1 (centres undefined)
 : 106, 108
COc1ccc(NC(=O)c2ccco2)cc1NC(=O)c1cc(Cl)ccc1OC
 : -43, 169
Cc1ccc(CN(Cc2ccco2)C(=O)COc2ccc(C)c(C)c2)cc1
 : 109, 107
COCCCNC(=O)C1CCN(c2nn3cc(-c4ccc(F)cc4)nc3s2)CC1
 : 111, 104
Cc1ccc(N(C)C(=O)CN2C(=O)CCc3cc(S(=O)(=O)N4CCOCC4)ccc32)cc1
 : 102, 107

Carrying on:
Order of results: PV pol inh, PV pol inh intensity
COCCNc1oc(-c2ccccc2)nc1S(=O)(=O)c1ccc(Br)cc1
 : 113, 115
CC1CCCCN1C(=O)CSc1nc2ccccc2nc1Cc1ccc(Cl)cc1 (centres undefined)
 : 103, 104
O=C(NCC(c1ccco1)S(=O)(=O)c1ccc(Cl)cc1)c1ccc(C(F)(F)F)cc1 (centres undefined)
 : 102, 107
COc1ccc(N2CCN(c3c4c(nc5nncn35)CCC4)CC2)cc1
 : 108, 108
COc1ccc(CC(=O)NCc2ccc3c(c2)CCN3C(C)=O)cc1OC
 : 110, 119
Cc1ccc(CNC(=O)c2ccc(CSCc3ccc(Cl)cc3)o2)cc1
 : 113, 106
CCC1CCCCN1C(=O)CCS(=O)(=O)c1cc2c(cc1C)NC(=O)CO2 (centres undefined)
 : 108, 111
CCOC(=O)c1sc2ccccc2c1S(=O)(=O)N1CCN(c2cccc(C)c2C)CC1
 : 108, 116
CCCCNC(=O)CSc1nc2n[nH]c(C)c2c(=N)n1-c1cccc(Cl)c1C
 : 99, 93
Cc1ccc(-c2noc(-c3cccnc3NCc3ccco3)n2)cc1
 : 109, 109
CCOc1cc(CNC(=O)CSc2n[nH]c(-c3ccccc3)n2)cc(OCC)c1OCC
 : 103, 99

Among those listed so far, these contain an aryl thioether with sulfur outside any ring.
Order of results: PV pol inh, PV pol inh intensity
O=C(NCCc1ccccc1)c1ccc(Cn2c(SCc3ccccc3F)nc3cccnc32)cc1
 : 106, 109
COc1cccc(NC(=O)CSc2nc(-c3ccccc3Cl)nc3c2Cc2c(CO)cnc(C)c2O3)c1
 : 99, 97
CC1=C(C(=O)Nc2ccccc2)C(c2ccc(F)cc2)n2nc(SCc3cc(C)ccc3C)nc2N1 (centres undefined)
 : 106, 105
CSc1ncc(C(=O)NCc2cccc(F)c2)c(-c2ccccc2)n1
 : 100, 104
Cc1cccc(-n2ccnc2SCC(=O)Nc2ccccc2C(F)(F)F)c1
 : 106, 111
O=C(Cn1c(SCCOc2ccc(Cl)cc2)nc2ccccc21)N1CCCCC1
 : 111, 102
O=C(O)CCCCn1c(SCC(=O)Nc2ccccc2C(F)(F)F)nc2ccsc2c1=O
 : 103, 109
Cc1ccc2nc(NC(=O)c3nc(SCc4ccccc4C)ncc3Cl)sc2c1
 : 102, 105
CC1CCCCN1C(=O)CSc1nc2ccccc2nc1Cc1ccc(Cl)cc1 (centres undefined)
 : 103, 104
CCCCNC(=O)CSc1nc2n[nH]c(C)c2c(=N)n1-c1cccc(Cl)c1C
 : 99, 93
CCOc1cc(CNC(=O)CSc2n[nH]c(-c3ccccc3)n2)cc(OCC)c1OCC
 : 103, 99

These rows are one share of the data. The share of hits here may be higher or lower than overall.
